Screening data as filed in PubChem.
VCAM-1 down: inhibitors of TNFa-induced VCAM-1 surface display, cell-based, plate reader, pooled HUVEC, TNFa stimulus (AID 454). HUVEC TNFa-induced VCAM-1 surface immunofluorescence, plate reader; numbers were filed only for top-ranked candidate wells. inhibition, % at 5 µM. 0.2% of 10,000 active;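 active = compound among top-ranked inhibitors of TNF-induced VCAM-1 adhesion protein staining, with the hit upheld by image or statistical review; inactive = the rest, including hits rejected on review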;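 also: 0% = TNFa with vehicle and 100% = cells without TNFa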
VCAM-1 up imaging: enhancers of VCAM-1 display on endothelial cells, imaging, high-content imaging, pooled HUVEC, TNFa stimulus (AID 457) | calls only | Pooled HUVEC, TNFa-induced VCAM-1 immunofluorescence imaging; hits of this screen are not shown here | 0.2% of 10,000 active;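 active = a top-ranked rise in VCAM-1 staining upheld on image or statistical review; inactive = the rest, including candidates rejected on review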;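 also: compounds tested at 5 µM in the well; cells exposed to compound for 24 hours before fixing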
FPRL1 ligand: human FPRL1 ligands by binding competition, primary screen, cell-based, FPR counter-screen, flow cytometry. FPRL1-expressing cells, fluorescent ligand binding inhibition. inhibition, %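 (tested at 6.7 µM)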. 0.3% of 24,000 active. AID 441, 2006;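 also: 0% = buffer alone and 100% = receptor blocker peptide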
Target sequence (P25090 whole entry, looked up): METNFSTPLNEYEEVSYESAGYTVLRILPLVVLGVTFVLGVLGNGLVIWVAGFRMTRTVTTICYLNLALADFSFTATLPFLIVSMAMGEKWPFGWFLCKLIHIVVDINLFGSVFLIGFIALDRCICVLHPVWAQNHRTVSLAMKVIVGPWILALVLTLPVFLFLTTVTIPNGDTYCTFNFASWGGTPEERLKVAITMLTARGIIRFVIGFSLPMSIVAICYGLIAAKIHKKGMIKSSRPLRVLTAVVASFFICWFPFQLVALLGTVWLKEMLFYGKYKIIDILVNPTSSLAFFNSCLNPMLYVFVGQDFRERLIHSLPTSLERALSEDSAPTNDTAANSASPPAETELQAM
VCAM-1 down imaging: inhibitors of TNFa-induced VCAM-1 surface display, imaging, high-content imaging, pooled HUVEC, TNFa stimulus (AID 456). HUVEC TNFa-induced VCAM-1 surface expression, immunofluorescence imaging; numbers were filed only for top-ranked candidate wells. 0.2% of 10,000 active. inhibition, % at 5 µM; hits with a dose series show IC50 in µM;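 active = top tenth filtered wells with inhibition above zero that passed visual or statistical confirmation; inactive = the rest, including hits rejected on review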;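 also: 0% = stimulated vehicle wells and 100% = unstimulated cells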
FPR ligand: human FPR ligands by binding competition, primary screen, cell-based, FPRL1 counter-screen, flow cytometry; fMet-Leu-Phe receptor (Homo sapiens), P21462; FPR-expressing cells, fluorescent ligand binding; inhibition, %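 (tested at 6.7 µM)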; 0.74% of 24,000 active; AID 440, 2006;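 also: 0% = buffer wells and 100% = receptor blocker peptide wells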
Target sequence (P21462 whole entry, looked up): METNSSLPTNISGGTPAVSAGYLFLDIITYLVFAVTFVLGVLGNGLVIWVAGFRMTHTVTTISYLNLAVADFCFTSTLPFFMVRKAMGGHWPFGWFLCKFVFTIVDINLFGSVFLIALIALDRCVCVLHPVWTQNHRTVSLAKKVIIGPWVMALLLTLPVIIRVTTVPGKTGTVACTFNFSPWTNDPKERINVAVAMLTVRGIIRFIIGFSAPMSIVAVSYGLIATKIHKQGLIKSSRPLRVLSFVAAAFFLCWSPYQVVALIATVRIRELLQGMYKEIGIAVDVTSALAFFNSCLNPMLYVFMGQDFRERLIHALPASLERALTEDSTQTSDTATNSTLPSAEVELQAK
Active calls of the source: *; i = inactive; ? = inconclusive; / = not tested or not shown.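 The calls were made as follows, unless noted: active = mean above 30%; inconclusive = self-fluorescent; inactive = the rest.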

The opening 2 compounds (preview)
SMILES	VCAM-1 down	VCAM-1 up imaging	FPRL1 ligand	VCAM-1 down imaging	FPR ligand
O=C(c1ccco1)N1CCN(C(=O)C(Cc2ccccc2)NS(=O)(=O)c2cccs2)CC1 (configuration not stated)	/	/	-4	/	0
COC(=O)c1cccc(NC(=O)NC2CCCN2S(=O)(=O)c2ccc(Cl)cc2)c1 (configuration not stated)	i	i	-11	i	-5

Main list (from the top)
SMILES	VCAM-1 down	VCAM-1 up imaging	FPRL1 ligand	VCAM-1 down imaging	FPR ligand
O=C(c1ccco1)N1CCN(C(=O)C(Cc2ccccc2)NS(=O)(=O)c2cccs2)CC1 (configuration not stated)	/	/	-4	/	0
COC(=O)c1cccc(NC(=O)NC2CCCN2S(=O)(=O)c2ccc(Cl)cc2)c1 (configuration not stated)	i	i	-11	i	-5
COCCN1C=C(C(=O)OC)C(c2cc3c(cc2Br)OCO3)C(C(=O)OC)=C1	i	i	-5	i	6
CCOC(=O)N1CCN(C(=O)CCC(=O)N2CCOc3ccc(C)cc32)CC1	/	/	5	/	4
Cc1cccc(-n2ncc3c(NCc4cccs4)ncnc32)c1	i	i	-5	i	-3
Cc1cc(C)n2cc(CSCc3ccco3)nc2n1	i	i	-1	i	7
COC(=O)Cn1ncn2c(cc3oc(C)cc32)c1=O	/	/	6	/	-4
COc1cccc(N2CCN(Cc3nc(N)nc(Nc4ccccc4)n3)CC2)c1	i	i	1	i	5
CCC(=O)Nc1ccc2nc(SCC(=O)N3CCCC3)sc2c1	i	i	-2	i	-3
Cc1cccc(C)c1NC(=O)C(c1ccccc1)N1CCN(C(=O)c2ccco2)CC1 (configuration not stated)	/	/	-8	/	-1
Cc1ccc(Cn2nnc3c(=O)n(CC(=O)OCc4ccccc4)cnc32)cc1	/	/	-1	/	-9
N#CC1=C(N)Oc2c(ccc3cccnc23)C1c1cccnc1 (configuration not stated)	i	i	0	i	2
O=C(COc1ccc(S(=O)(=O)NC2CCCCC2)cc1)N1CCN(c2ccc(F)cc2)CC1	/	/	5	/	1
O=C(c1cccs1)N1CCN(C(=O)c2ccco2)c2ccccc2C1	/	/	4	/	-3
CCn1ncc(Br)c1C(=O)Nc1cc(C)ccc1F	/	/	0	/	1

The closing four compounds of the part above lead into the next.
SMILES	VCAM-1 down	VCAM-1 up imaging	FPRL1 ligand	VCAM-1 down imaging	FPR ligand
N#CC1=C(N)Oc2c(ccc3cccnc23)C1c1cccnc1 (configuration not stated)	i	i	0	i	2
O=C(COc1ccc(S(=O)(=O)NC2CCCCC2)cc1)N1CCN(c2ccc(F)cc2)CC1	/	/	5	/	1
O=C(c1cccs1)N1CCN(C(=O)c2ccco2)c2ccccc2C1	/	/	4	/	-3
CCn1ncc(Br)c1C(=O)Nc1cc(C)ccc1F	/	/	0	/	1
Cc1nc2ccc(S(=O)(=O)NCC(=O)NCc3ccc4c(c3)OCO4)cc2s1	/	/	2	/	-4
COc1cc(C(=O)N2CCC(c3nc(-c4cccnc4)no3)CC2)cc(OC)c1OC	i	i	-2	i	-1
NS(=O)(=O)c1ccc(C(=O)O)cc1	i	i	10	i	1
CC(C)N1CC23C=CC(O2)C(C(=O)OCc2ccccc2)C3C1=O (configuration not stated)	/	/	-1	/	3
CC(C)C(NS(=O)(=O)c1ccc2c(c1)oc(=O)n2C)C(=O)N1CCN(C2CCCCC2)CC1 (configuration not stated)	/	/	-4	/	-3
CN(C(=O)c1ccc(=O)[nH]c1)C1(C(=O)NC2CCCCC2)CCCCC1	/	/	4	/	-4
Cc1ccc(S(=O)(=O)NCCNC(=O)C2CCCNC2=O)cc1 (configuration not stated)	i	i	3	i	-3
COc1ccc2c(c1)CCc1cc(C(=O)N3CCN(c4ccc(N5CCOCC5)nn4)CC3)sc1-2	i	i	4	i	1
O=C(NCN1C(=O)C2C3C=CC(C3)C2C1=O)OC1CCCCC1 (configuration not stated)	/	/	-1	/	0
Cc1ccc(S(=O)(=O)N2CCC(C(=O)N3CCC[C@H]3C(=O)NCc3ccccc3)CC2)cc1	i	i	-3	i	4
O=C1c2cccnc2-c2ncccc21	/	/	1	/	-2
Cc1ccc(S(=O)(=O)n2nc(OC(=O)c3ccco3)cc2N)cc1	i	i	2	i	-3
CCC1CCCCN1C(=O)CSc1nnc(CNC(=O)COc2ccc(Cl)cc2)o1 (configuration not stated)	/	/	-1	/	2
CCCNC(=O)c1c(C)cc(=O)oc1C	/	/	-3	/	-4
CCNC(=O)N1c2ccc(OCC)cc2C(C)=CC1(C)C	i	i	1	i	-2
C[C@]12C=CC(=O)C=C1CC[C@@H]1[C@@H]2[C@@H](O)C[C@@]2(C)[C@H]1CC[C@]2(O)C(=O)COC(=O)CCC(=O)O	i	i	-3	i	2
O=C(O)CCc1nc(-c2cccs2)no1	/	/	3	/	5
Cc1ccc(CNC(=O)C2C3C=CC4(CN(Cc5cccnc5)C(=O)C24)O3)cc1 (configuration not stated)	/	/	3	/	-13
O=C(C1CCCCC1)N1CCC(c2nc3c(nnn3Cc3ccccc3Cl)c(=O)[nH]2)CC1	i	i	-3	i	-1
Cc1ccc(NC(=O)C2CC=CCC2C(=O)N2CCCCC2)cc1 (configuration not stated)	i	i	-4	i	-3
Cc1cccn2c(=O)c3cc(C(=O)N(C)C)n(C)c3nc12	/	/	-2	/	-2
COCCN1Cc2cccc(C(=O)NCc3ccccc3OC)c2C1=O	/	/	-1	/	-6
CC(CP(=O)(O)O)NC(=O)Cc1ccccc1 (configuration not stated)	/	/	0	/	-4
COc1ccc(C(=O)N2CCCc3ccccc32)cc1	i	i	1	i	9
Cc1ccc(Cn2c3ccccc3c3cn[nH]c(=O)c32)cc1	/	/	-2	/	2
COc1ccccc1CNC(=O)CCNC(=O)Cn1ccc2ccccc2c1=O	i	i	3	i	12
NCc1cccc(-n2cccn2)c1	i	i	5	i	-3
CC1CCN(S(=O)(=O)Cc2ccccc2Cl)CC1	/	/	3	/	0
CCCCN(C)C(=O)C1CCC(=O)N(c2cc(OC)c(OC)c(OC)c2)C1c1ccc(OC)cc1 (configuration not stated)	/	/	-17	/	-7
COc1cccc(OCC(=O)Nc2ccccc2NC(C)=O)c1	/	/	2	/	2
CN1CCN(S(=O)(=O)c2ccc3[nH]cc(C(=O)O)c(=O)c3c2)CC1	/	/	3	/	-1
COc1ccc(N(C)S(=O)(=O)c2cccc3cccnc23)c(OC)c1	/	/	9	/	12
CCOC(=O)c1nnn(-c2nonc2N)c1-c1ccc(OC)cc1	/	/	3	/	0
CC(=O)Nc1cc(C(=O)O)ccc1S(=O)(=O)c1ccc(Cl)cc1	/	/	-2	/	-2
COc1cccc(NC(=O)Cc2nnc(SCC(=O)c3ccccc3)n2C)c1	i	i	2	i	-12
N#CC1=C(N)OC(c2ccccc2)=C(C#N)C1c1ccc2c(c1)OCO2 (configuration not stated)	i	i	5	i	0
CCC(C)(C(=O)NC1CCCC1)N(Cc1cccs1)C(C)=O (configuration not stated)	i	i	-1	i	1
Cn1c(=O)oc2cc(S(=O)(=O)NC3CCN(Cc4ccccc4)CC3)ccc21	i	i	-2	i	-7
CCOc1cccc(/C(O)=C2/C(=O)C(=O)N(CCOC)C2c2ccncc2)c1 (configuration not stated)	/	/	-4	/	5
O=C(Nc1ccc2c(c1)nc1n2CCN(Cc2ccccc2)C1)c1cccs1	i	i	-4	i	-3
CCOC(=O)c1ccc(N2C(=O)CC(N3CCN(C/C=C/c4ccccc4)CC3)C2=O)cc1 (configuration not stated)	i	i	-13	i	-5
O=C(NCc1cccs1)Nc1cccs1	/	/	4	/	-2
CCN1CCN(C(=O)CS(=O)Cc2nc(-c3ccc(OC)cc3)oc2C)CC1 (configuration not stated)	/	/	-7	/	-4
CC(C)CC1N=C2c3ccccc3N=C(SCc3cc(=O)n4ccccc4n3)N2C1=O (configuration not stated)	/	/	-8	/	2
CCOC(=O)N1CCN(C(=O)C2CCN(S(=O)(=O)N3CCCC3)CC2)CC1	/	/	-6	/	-6
O=C(O)Cn1cccc1C(=O)c1ccccc1	/	/	-2	/	-12
N#CC1=C2SCN(Cc3ccccc3)CN2C(=O)CC1c1ccccc1F (configuration not stated)	/	/	0	/	1
C=CCOc1ccc(/C(O)=C2\C(=O)C(=O)N(CCN(C)C)C2c2cccs2)cc1 (configuration not stated)	/	/	0	/	-9
CCCn1c(=O)c2c(c3ccccc31)OC(C)C(=O)N2 (configuration not stated)	/	/	1	/	-1
CCOc1ccc(CCNc2nc3c(c(=O)n(C)c(=O)n3C)n2CC)cc1OCC	i	i	2	i	16
CCOC(=O)c1c(C)c(-c2ccccc2)n(CC(=O)N2CCCC2)c1C	/	/	-5	/	-4
COc1cc2c(C(=O)NCc3ccc(C)o3)cn(CC(C)C)c(=O)c2cc1OC	/	/	0	/	-3
COc1cccc(NC(=O)N2CCCC2C(=O)Nc2ccc3c(c2)OCO3)c1 (configuration not stated)	i	i	2	i	12
Cc1cccc(N2CCN(C(=O)Cn3ccc4ccccc4c3=O)CC2)c1C	i	i	2	i	-4
CCS(=O)(=O)N1CCC(C(=O)NC2CCCCC2)CC1	i	i	-2	i	4
O=C1NC2(CCCC2)N=C1c1ccc(Cl)cc1	/	/	7	/	2
COC(=O)c1ccc(NC(=O)Cn2nc(SC)n(N)c2=S)cc1	/	/	0	/	2
O=C(Nc1cccnc1)c1cc(-c2ccco2)on1	/	/	-4	/	-1
CC(=O)c1ccc2c3c(cccc13)C(=O)N(c1c(C)nn(C)c1C)C2=O	i	i	1	i	10
COc1cc2nc(NCC3CCCO3)n3nc(-c4cccnc4)nc3c2cc1OC (configuration not stated)	/	/	-2	/	-12

Two compounds from above, reduced to VCAM-1 down imaging, FPRL1 ligand and FPR ligand.
mol	VCAM-1 down imaging	FPRL1 ligand	FPR ligand
CCOC(=O)c1c(C)c(-c2ccccc2)n(CC(=O)N2CCCC2)c1C	/	-5	-4
N#CC1=C2SCN(Cc3ccccc3)CN2C(=O)CC1c1ccccc1F (configuration not stated)	/	0	1

Following part.
SMILES	VCAM-1 down	VCAM-1 up imaging	FPRL1 ligand	VCAM-1 down imaging	FPR ligand
Cc1cc(/C(O)=C2\C(=O)C(=O)N(CCN(C)C)C2c2ccncc2)ccc1OCc1ccccc1 (configuration not stated)	/	/	-8	/	-10
Cc1ccc(C(=O)NCc2ccc3c(c2)OCO3)cc1N1CCCC1=O	/	/	-5	/	1
O=C(NC1CCCc2ccccc21)C1CCN(c2nnc(-n3cccc3)s2)CC1 (configuration not stated)	i	i	3	i	4
O=C(O)CCC(C(=O)O)n1c(O)c(C2=c3ccccc3=NC2=O)sc1=S (configuration not stated)	/	/	-9	/	-6
COC(=O)C(C)Sc1nc2c([nH]c3ccccc32)c(=O)n1C (configuration not stated)	/	/	0	/	10
CSc1cccc(NC(=O)CSc2nc3ccccc3o2)c1	/	/	7	/	0
CCN(CC)CCN1C(=O)Cn2c(C)c(C)c3cccc1c32	i	i	-3	i	-9
COc1ccc(CNc2nc3c(c(C(F)(F)F)n2)CCCCC3)cc1	/	/	6	/	2
CCOC(=O)c1cn2c3c(c(F)c(F)c(F)c3c1=O)SC(N1CCCC1)=N2	/	/	?	/	?
CCn1cc(C(=O)OCc2ccc(F)cc2)c(=O)c2ccc(C)nc21	i	i	-12	i	2
CCc1cc(C=NC2CCCCC2)c(O)s1	/	/	1	/	-7
Cc1ccc(N2C(=O)CSC2c2cccnc2)cc1F (configuration not stated)	/	/	8	/	-2
COc1cc(CC(=O)NCc2ccc3c(c2)OCO3)cc(OC)c1OC	i	i	-4	i	-8
O=C(Nc1nc(-c2ccccn2)cs1)c1ccc(S(=O)(=O)N2CCCCC2)cc1	/	/	8	/	6
O=C(NCCN1CCOCC1)c1csc2c1CCCCC2	/	/	-4	/	-6
COc1ccc(CCNC(=O)CCS(=O)(=O)c2ccc3c(c2)CCN3C(C)=O)cc1OC	/	/	3	/	1
CCCCN(C)Cc1c(C)[nH]c2c(Cl)cccc2c1=O	i	i	-1	i	7

Entries of single compounds as entered above. Order of screens: VCAM-1 down	VCAM-1 up imaging	FPRL1 ligand	VCAM-1 down imaging	FPR ligand
COC(=O)C(C)Sc1nc2c([nH]c3ccccc32)c(=O)n1C (configuration not stated) is entered as /	/	0	/	10
CCOC(=O)c1cn2c3c(c(F)c(F)c(F)c3c1=O)SC(N1CCCC1)=N2 is entered as /	/	?	/	?

These rows are one share of the data; count on the stated rates, not on these rows.
